RE007 growth inh – less growth of the S. pombe RE007 Vpr strain | Potency, µM (highest dose often 92.2 µM), for inactives: top-dose activity change, negative = less growth | hit rate 0.21% among 360,000 | S. pombe RE007 Vpr strain, BacTiter-Glo ATP luminescence, 24 h; control for the full effect not named in the record; active = well fitted falling curve with a large enough effect; inconclusive = small, poorly fitted or top-dose-only effect; inactive = no such curve, though single readings can be large or run the other way;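 note: % is set by controls: 0 for no effect and ±100 for the full control effect; nearly all actives have a fitted effect of over 50% in size; the assay follows cell death caused by Vpr and the record does not say whether a fall means rescue or toxicity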
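Fission yeast strain RE007, carrying one chromosomally integrated HIV-1 vpr copy, was seeded at OD 0.01 in PMG+AL medium with 23 nL pinned compound. After 24 h at 30 °C and 99% humidity, viability was read by BacTiter-Glo luminescence.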
StopGo reporter – FMDV 2A StopGo reporter, luciferase signal. AID 1159524. Potency, µM (highest dose often 57.9 µM), without a hit: top-dose signal change, negative = less light. human cells with a luciferase reporter of 2A StopGo recoding; control for the full effect not named in the record. hit rate 1.2% among 410,000; active = well fitted falling curve with a large enough effect; inconclusive = small, poorly fitted or top-dose-only effect; inactive = no such curve, though single readings can be large or run the other way; tested in HEK293T cells; note: % is set by controls: 0 for no effect and ±100 for the full control effect; nearly all actives have a fitted effect of over 45% in size; luciferase light after 4 h
SARS PLpro yeast – inhibitors of SARS-CoV papain-like protease in yeast. S. cerevisiae expressing SARS-CoV PLpro, growth rescue; control for the full effect not named in the record. Potency, µM (titrated, usually from 32.9 µM), inactives show at the top dose activity, positive = growth rescue. hit rate 0.19% among 330,000. AID 485353; active means well fitted rising curve with a large enough effect; inconclusive means small, poorly fitted or top-dose-only effect; inactive means no such curve, though single readings can be large or run the other way; note: 0% is about no effect; nearly all actives have a fitted effect of over 55% in size; growth read by luminescence after 48 h
* marks the source's active call; other numbers are inactive results; ? = inconclusive; & = joins results of further samples; [ ] = dose if it differs, or a comment. Potency is the fitted concentration of half-maximal effect.

compound | RE007 growth inh | StopGo reporter | SARS PLpro yeast
O=C(COC(=O)C12CC3CC(CC(Br)(C3)C1)C2)NNC(=O)c1ccccc1 | -6% | -1% | -5%
O=C(NCCCN1CCOCC1)c1cccc(S(=O)(=O)N2CCOCC2)c1 | -9% | -3% | -1%
COc1ccc(C(=O)OCC(=O)NC2CCCCCC2)cc1OC | 1% | -16% | -1%
Cc1cccc(Cn2nc(-n3cccc3)c3c(C)cc(C)nc32)c1 | 3% | 0% | -4%
CN(CC(=O)Nc1ccccc1C(=O)NC1CC1)Cc1ccc(Cl)s1 | -10% | -20% | -1%
O=C(COC(=O)c1ccc(Cl)nc1)Nc1cccc(S(=O)(=O)N2CCCCC2)c1 | 24% | -22% | -3%
CCCN=C1N(CC)C[C@@H]2[C@@H]3C(=O)N(Cc4ccccc4)C(=O)[C@@H]3[C@](Cc3ccccc3)(C(=O)OC)N12 | -14% | -13% | 21%
O=C(CSc1ncccn1)N/N=C/c1cccc(OC2CSC2)c1 | -7% | -3% | 2%
Cc1cccc(C)c1NC(=O)CN(C)C(=O)CN1C(=O)NC(C)(C)C1=O | -4% | -18% | -5%
CN(CC(=O)Nc1ccccc1Cl)C(=O)COC(=O)/C=C/c1cccs1 | -5% | 3% | 1%[6.58 µM]
Cc1ccc(C(=O)N(CC(=O)NC2CCCC2)c2ccccc2C)s1 | 0% | 9% | 2%
O=C1C(Cc2ccccc2)Nc2ncnc(N3CCCCC3)c2N1Cc1ccc(Br)cc1 (stereo not drawn) | -14%&11% | -17%&0% | -23%

Single records (already shown). Order of values: RE007 growth inh	StopGo reporter	SARS PLpro yeast
CN(CC(=O)Nc1ccccc1Cl)C(=O)COC(=O)/C=C/c1cccs1 in the list: -5%	3%	1%[6.58 µM]
O=C(COC(=O)c1ccc(Cl)nc1)Nc1cccc(S(=O)(=O)N2CCCCC2)c1 in the list: 24%	-22%	-3%
CCCN=C1N(CC)C[C@@H]2[C@@H]3C(=O)N(Cc4ccccc4)C(=O)[C@@H]3[C@](Cc3ccccc3)(C(=O)OC)N12 in the list: -14%	-13%	21%
O=C(NCCCN1CCOCC1)c1cccc(S(=O)(=O)N2CCOCC2)c1 in the list: -9%	-3%	-1%

Following part.
compound | RE007 growth inh | StopGo reporter | SARS PLpro yeast
Cc1ccccc1CCNC(=O)c1cc(C2CC2)nc2c1cnn2C(C)C | -5% | -2% | 7%
Cc1noc(C)c1NC(=O)Nc1ccc2c(c1)CC(=O)N([C@H](C)CO)C[C@@H](C)[C@H](CN(C)CC1CCCCC1)O2 | -4% | 5% | 1%
Cc1ccc(S(=O)(=O)N2C[C@@H]3[C@H]4CC[C@H](C4)[C@@H]3[C@@H](C)[C@@H]2c2cn(Cc3ccccc3)c3ncccc23)cc1 | 8% | -23% | 4%
CCOC(=O)C1=C(COC(=O)C(CC)c2ccccc2)NC(=O)NC1C (stereo not drawn) | -3% | -25% | 0%
O=C(CN1C(=O)c2cccc3cccc(c23)C1=O)NCCN1CCOCC1 | -6% | -12% | -2%
C[C@@H]1CN([C@@H](C)CO)C(=O)c2cc(NC(=O)C3CC3)ccc2O[C@@H]1CN(C)Cc1ccc(Cl)c(Cl)c1 | -21% | -22% | -2%
CC(OC(=O)C1CC(=O)N(Cc2ccco2)C1)C(=O)Nc1ccc(F)cc1Cl (stereo not drawn) | 7% | -10% | -8%
COc1ccccc1N1C(=O)CC(c2ccccc2)CC1=O | -9% | -4% | 0%
Cn1cnc(C(=O)NCc2ccc(CNC(=O)OC(C)(C)C)cc2)c1C(=O)NCc1ccc(CNC(=O)OC(C)(C)C)cc1 | 7% | 16µM* | -5%
CN(C(=S)NC(=O)C12CC3CC(CC(C3)C1)C2)c1ccc(O)cc1 | 14% | 13% | -8%
C#CCOCCOCCOCCNc1nc(N2CCN(C(=O)CCCCCCCCCCNC(=O)[C@H](CCCCN)n3cc(CCCC(=O)O)nn3)CC2)nc(N2CCN(C(=O)CCCCCCCCCCNC(=O)[C@H](CCCCN)n3cc(CCCC(=O)O)nn3)CC2)n1 | 3% | 0% | -13%
CCc1cccc(NC(=O)Cn2cc(C=O)c3ccccc32)c1 | 11% | ? | -2%
CCN(C(=O)CSc1nc2ccccc2n1C)C1CCS(=O)(=O)C1 (stereo not drawn) | 7% | -11% | -27%
O=C(C[C@@H]1C/C=C/CC[C@H](Cc2ccc(F)cc2)C(=O)OCCNC1=O)N[C@H](CO)Cc1ccccc1 | -6% | -27% | 2%
CC(=O)NN1C(=O)c2ccccc2NC1c1ccoc1 (stereo not drawn) | -4% | 11% | 1%
CCOC(=O)CCCNC(=O)COC(=O)/C=C/c1ccc2c(c1)OCO2 | 1% | 0% | 1%
O=C(Nc1ccc(Cl)c(S(=O)(=O)N2CCCCC2)c1)c1ccco1 | -10% | ? | -3%
COC(=O)[C@@H]1C[C@@H](C(=O)O)[C@H](C)C1(C)C | 2% | -17% | 7%
CCOc1ccc(S(=O)(=O)N2CCCCC2)cc1NC(=O)c1cccnc1OCC | 3% | 10% | 2%
Cc1ccc(/C=C/C(=O)OCC(=O)NC(=O)NCc2ccco2)cc1 | 1% | -11% | -6%
COCCSc1nnc(NC(=O)c2ccc([N+](=O)[O-])cc2)s1 | 12% | 30%[activator] | 0%
Cc1ccc(-c2noc(CCC(=O)NCc3ccccc3CN3CCOCC3)n2)cc1 | -5% | -4% | 2%
O=C(NC1CCC(O)CC1)C1CCN(S(=O)(=O)c2c(Cl)cccc2Cl)CC1 (stereo not drawn) | 5% | -8% | -5%
COc1ccc(NC(=O)COC(=O)c2ccc(S(=O)(=O)N3CCCC3)cc2)cc1OC | 4% | 1% | -5%
CCN(C(=O)CSc1nc2scc(-c3ccccc3)c2c(=O)n1C)C1CCS(=O)(=O)C1 (stereo not drawn) | -3% | -14% | 1%
CC(C)[C@H](N)c1cn([C@@H](CC(N)=O)C(=O)N2CCNCC2)nn1 | 13% | -2% | 3%
CCOC(=O)c1nnsc1Nc1ccc(C)c(C)c1 | ? | 44%[activator] | -1%
CCc1ccc([C@@H]2CC=C(C(=O)O)[C@H](c3ccc(C(C)(C)C)cc3)N2S(=O)(=O)c2ccc(C)cc2)cc1 | 8% | ? | 0%
O=C(c1cccc(S(=O)(=O)N2CCOCC2)c1)N1CCC(Cc2ccccc2)CC1 | -1% | -32% | 5%
CCN(C[C@H]1N[C@@](CC)(C(=O)OC)[C@H]2C(=O)N(Cc3ccccc3)C(=O)[C@@H]12)C(=O)C1CCCCC1 | 5% | -25% | 0%
CCn1c(SC(C)C(=O)Nc2ccc3c(c2)OCCO3)nnc1C1CC1 (stereo not drawn) | 8% | -4% | 5%
O=C(NCc1ccccc1Cl)c1cccc2c1C(=O)c1ccc(-c3ccc(OC(F)(F)F)cc3)cc1S2(=O)=O | 14% | -5% | -1%
O=S(=O)(c1ccc(SCc2ccccc2)nc1)N1CCCCC1 | 19% | -19% | 6%
Cc1ccc(-c2cc(C(=O)NNC(=O)c3csc(N4CCOCC4)n3)c3ccccc3n2)cc1 | -8% | -6% | 0%
CC1(C)CC(NC(=O)C(=O)NCCc2ccc(Cl)cc2)CC(C)(C)N1 | 1% | -2% | -1%
O=C(COC(=O)c1cccc(O)c1)Nc1ccc(S(=O)(=O)N2CCOCC2)cc1 | 0% | -27% | 0%
COc1ccc(OC)c(CN2CCN(C(=O)CNC(=O)c3cc(C)cc(C)c3)CC2)c1 | 0% | -26% | -3%
Cc1nc(C)c(C(=O)OC(C)C(=O)Nc2ccc(F)cc2)s1 (stereo not drawn) | 6% | -22% | 2%
COc1ccc(/C=C/C(=O)Nc2cccc(S(=O)(=O)NC3=NCCCCC3)c2)c(OC)c1 | 13% | -5% | 4%
CC1(c2ccc(OC(F)F)cc2)NC(=O)N(CC(=O)N2CCN(C(=O)c3ccco3)CC2)C1=O (stereo not drawn) | -9% | -13% | -8%
CCN(CC)S(=O)(=O)c1cc(NC(=O)COC(=O)c2c(C)noc2C)ccc1C | -6% | 0% | 0%
COP(=O)(OC)c1nc(-c2cccc3ccccc23)oc1N1CCCCC1 | 6% | -10% | -2%
CCN(c1ccccc1)S(=O)(=O)c1ccc(Cl)c(NC(=O)c2ccc(=O)[nH]n2)c1 | 4% | -14% | 5%
NC(=O)c1ccsc1NC(=O)COC(=O)c1ccccc1F | 2% | 17% | -5%
C[C@H]1CN([C@@H](C)CO)C(=O)c2cccc(NS(=O)(=O)c3ccc(F)cc3)c2O[C@H]1CN(C)S(=O)(=O)c1cn(C)cn1 | 9% | -16% | -3%
Cn1cc(/C=C(\C#N)C(=O)Nc2cccc([N+](=O)[O-])c2)c2ccccc21 | -9% | -15% | 2%
N#C/C(=C/c1ccccc1)C(=O)OCC(=O)Nc1ccccc1[N+](=O)[O-] | -2% | -9% | 2%
CN(C)C(CNC(=O)c1cc(S(=O)(=O)N2CCOCC2)ccc1F)c1cccs1 (stereo not drawn) | 18% | 1% | 3%
COCCNC(=O)C(=O)N/N=C/c1cccs1 | 2% | 24% | 0%
CCOC(=O)c1cc(-c2ccccc2C)nn1CC1CC(c2ccc(OC)cc2)=NO1 (stereo not drawn) | 4% | -9% | -4%
Cc1ccc(C(=O)OCC(=O)Nc2ccc(Cl)cn2)s1 | -9% | -3% | -7%
COC(=O)[C@H](Cc1ccc(O)cc1)NC(=O)Cn1cnc2c(SC)nc(N)nc21 | 0% | -14% | 8%
COc1cc(O)sc1C=Nc1ccc(Cl)cc1Cl | -2% | -6% | 0%
COC(=O)C1=C(c2ccccc2OCc2ccccc2)C[C@@H]2CC[C@H]1N2C(=O)NCCOc1ccc(OC)cc1 | 0% | -18% | -5%
COc1ccc(NC(=O)N(C)C[C@H]2Oc3c(NC(=O)Nc4c(C)noc4C)cccc3C(=O)N([C@H](C)CO)C[C@@H]2C)cc1 | 1% | -3% | 5%
O=C(c1cc(-c2ccco2)nc2ccccc12)N1CCCC(C(F)(F)F)C1 (stereo not drawn) | -14% | -22% | -5%
CC(C(=O)Nc1ccc2c(c1)OCO2)N(C)CC(=O)Nc1ccccc1Cl (stereo not drawn) | -19% | -28% | -2%
Cc1noc(C)c1NC(=O)N(C)C[C@H]1Oc2ccc(NC(=O)CCN3CCOCC3)cc2C(=O)N([C@H](C)CO)C[C@@H]1C | 7% | -2% | 3%
CN(CCCNC(=O)CCCOc1cc(=O)n(C)c2ccccc12)Cc1ccccc1 | -8% | 20% | 2%
COc1cccc(NC(=O)C(c2ccccc2)N2CCN(CC(=O)N3CCOCC3)CC2)c1 (stereo not drawn) | -14% | 18% | 2%

(more compounds)
compound | RE007 growth inh | StopGo reporter | SARS PLpro yeast
CC(=O)Nc1ccc(S(=O)(=O)NCC(=O)OCC(=O)N2CCCCCC2)cc1 | 0% | -16% | 7%
Cc1cc(C)c(NC(=O)CSCc2nc3sc(C)c(C)c3c(=O)[nH]2)c(Cl)c1 | -4% | -24% | 5%
COc1ccc(CN2CC(=O)N3[C@H]4c5ccc(OC)cc5OC[C@@H]4[C@H](c4ccccc4)[C@]3(C)C2=O)cc1 | -2% | -13% | -26%
COc1ccccc1CNCCS(=O)(=O)NN1CCOCC1 | 1% | -22% | 13%
O=C1OC(CC(=O)N(Cc2nnc(-c3ccc(Cl)cc3)o2)C2CC2)c2ccccc21 (stereo not drawn) | -2% | 11% | -3%
COc1ccccc1NS(=O)(=O)c1ccc(C(=O)NCc2ccco2)cc1 | 5% | -15% | 0%
Cc1ccc(OCCNC(=O)c2ccc(C)o2)cc1 | -12% | 16% | 5%
CC(C)(C)OC(=O)C[C@@H]1C/C=C\C[C@H](CC(=O)N(CCO)Cc2ccccc2)C(=O)N[C@@H](Cc2c[nH]c3ccccc23)COC1=O | -11% | 8% | 2%
CN1CCC(N(C)C(=O)c2cc(-c3ccccc3Cl)nc3ccccc23)CC1 | 4% | -14% | 4%
Cc1ccc(C)c(NC(=O)CN(C)C(=O)c2ccc(S(=O)(=O)N3CCCCCC3)cc2)c1 | 4% | -17% | 0%
CCN(CC)c1ccc(S(=O)(=O)N2CCOCC2)cc1NC(=O)Cn1nc(C)c([N+](=O)[O-])c1C | 16% | -4% | 8%
CN(C)c1ccc(C=NCCc2ccc(S(N)(=O)=O)cc2)cc1 | 30% | -8% | 0%
CN(c1ccc(OC(=O)CC2OC(=O)c3ccccc32)cc1)S(=O)(=O)c1ccccc1 (stereo not drawn) | 3% | 0% | -1%
Cn1cccc1C(=O)OCC(=O)NCCc1ccccc1 | -1% | 75%[activator] | -2%
COc1ccccc1-n1nnnc1SCC(=O)NC(=O)Cc1ccccc1 | 8% | -25% | 8%
CC(=O)c1c(C)[nH]c(C(=O)NNC(=O)c2ccc(C)cc2)c1C | -7% | -14% | -1%
CC1CCCCC1NC(=O)NC(=O)COC(=O)C1=NN(c2ccccc2)C(=O)CC1 (stereo not drawn) | 9% | -19% | -8%
O=C1N/C(=N/N=C/c2ccco2)SC1Cc1ccccc1 (stereo not drawn) | -3% | -7% | 3%

Source: PubChem BioAssay (National Center for Advancing Translational Sciences (NCATS))

Some of the compounds tested; count on the stated rates, not on these rows.
